Screening results: PubChem, Fisher Drug Discovery Resource Center
NPYLR7 agonist – activates Aedes aegypti NPYLR7 receptor; HEK293T NPYLR7/Galpha15, GCaMP6s calcium fluorescence; activation, % at 10 µM; hit rate 0.15% among 270,000; AID 1259423; in the data active = activation above about 40%;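 also: 0% = vehicle and 100% = reference agonist at the receptor; some compounds past the cut are filed as inactive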
NPYLR7 agonist max-min – further read-out of NPYLR7 agonist, marked with its call; activation, %; measured here: Max-Min RFU normalised activation; some inactives read as strong as hits;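 span of the calcium signal over five minutes; 0% = vehicle and 100% = native peptide agonist; compound fluorescence can raise it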
Numbers without * were called inactive; & = joins results of further samples. The list is partial, so the mix of outcomes need not match the whole.

nr | Structure | NPYLR7 agonist | NPYLR7 agonist max-min
1 | CCO/C(C)=N\Oc1cc(=O)oc2ccccc12 | 4 | 1
2 | CC(=O)OC[C@H]1O[C@@H]2[C@@H](Oc3nc(=O)ccn32)[C@@H]1OC(C)=O | -2 | -3
3 | CCCNC(=O)Cn1nc(C)c([N+](=O)[O-])c1C | 2 | 9
4 | CCCNC(=O)N(Cc1ccco1)Cc1nccn1Cc1ccc(C(F)(F)F)cc1 | 2 | 11
5 | COc1cc2ncc(C#N)c(N3CCC(C(=O)NCc4ccc(Cl)cc4)CC3)c2cc1OC | -5 | -7
6 | CCN1CCN(c2nc(-c3cnc(N4CCCC4)nc3C)cc(=O)[nH]2)CC1 | 2 | -2
7 | CC1Sc2ccccc2N(Cc2ccc(OC(F)(F)F)cc2)C1=O (stereo unspecified) | -6 | -7
8 | O=C1C(C(=O)N(Cc2ccsc2)C2CC2)CCN1c1ccc(F)c(F)c1 (stereo unspecified) | 14 | 10
9 | CC(=O)N(CCn1nc(C)cc1C)c1nc2c(C)c(Cl)ccc2s1 | -18 | -24
10 | c1csc(CN2CCN(Cc3nc(-c4ccc5c(c4)OCO5)no3)CC2)c1 | 3 | 0
11 | CCOC(=O)C1=C(C)NC(=S)NC1c1cccs1 (stereo unspecified) | 1 | 3
12 | CCOc1ccc(S(=O)(=O)NCCn2nc(-c3ccccc3)ccc2=O)c(OCC)c1 | 10 | 6
13 | CCSc1nnc2ccc(-c3ccc(Cl)cc3)nn12 | -17 | -10
14 | CCCn1c(O)c(C=NCC2CCCCC2)c(=O)[nH]c1=S | 1 | -1
15 | CC(CNC(=O)c1cccs1)n1cncn1 (stereo unspecified) | 2 | 7
16 | N#Cc1nc(-c2ccc(COc3ccccc3)o2)oc1NCc1ccccc1 | 0 | 21
17 | CCCC(=O)N1CCN(C(=O)c2cn(CC3CCCO3)cc3c(=O)n(-c4ccccc4)nc2-3)CC1 (stereo unspecified) | 3 | 4
18 | Cc1nc(CN(C)C(=O)c2c(-c3ccccc3Cl)noc2C)no1 | 7 | 5
19 | C=CCN(Cc1ccccc1Cl)C(=O)C1CCCN1 (stereo unspecified) | 24 | 9
20 | COCCN1CCN(C(=O)CN2CC3=C(C2=O)C(c2ccc(F)cc2)NC(=O)N3C)CC1 (stereo unspecified) | 2 | 10
21 | Cc1c(Cl)c([N+](=O)[O-])nn1CC(=O)NN1C(=O)CSC1=S | -12 | -15
22 | Cc1oc(-c2ccc(Cl)cc2Cl)cc1C(=O)NC(C)C | -3 | -7
23 | O=[N+]([O-])c1ccc(N2CCN(CCO)CC2)cc1SCCO | -1 | -4
24 | O=C(OCc1ccccc1)N1C[C@@H](CO)[C@@H]2Oc3c(F)cccc3[C@@H]21 | 1 | 1
25 | COc1ccc(-n2nc(C(=O)N3CCCC3)c(=O)n(Cc3cccc(Cl)c3)c2=O)cc1 | 14 | 21
26 | CCS(=O)(=O)c1ccc2c(c1)N(Cc1cc(C(C)=O)ccc1OC)C(=O)C(C)O2 (stereo unspecified) | 6 | 1
27 | CN(Cc1nccs1)C(=O)CCc1nnc(Cc2cccc(C(F)(F)F)c2)o1 | 0 | -2
28 | C=CC[C@@H]1CC=C[C@@H](C)N1C(=O)c1cc(C)nc(C)n1 | -1 | -5
29 | C#CCN(Cc1nc(-c2ccccc2C)oc1C)C1CCCCC1 | 5 | 10
30 | CCCCCCN(C(=O)c1ccc(Cl)cc1Cl)C(C)c1nc2ccccc2c(=O)n1-c1cccc(Cl)c1C (stereo unspecified) | 7 | 12

Given with one line to a screen: entries from further up.
23	O=[N+]([O-])c1ccc(N2CCN(CCO)CC2)cc1SCCO
24	O=C(OCc1ccccc1)N1C[C@@H](CO)[C@@H]2Oc3c(F)cccc3[C@@H]21
25	COc1ccc(-n2nc(C(=O)N3CCCC3)c(=O)n(Cc3cccc(Cl)c3)c2=O)cc1
26	CCS(=O)(=O)c1ccc2c(c1)N(Cc1cc(C(C)=O)ccc1OC)C(=O)C(C)O2 (stereo unspecified)
27	CN(Cc1nccs1)C(=O)CCc1nnc(Cc2cccc(C(F)(F)F)c2)o1
28	C=CC[C@@H]1CC=C[C@@H](C)N1C(=O)c1cc(C)nc(C)n1

screen / no.,23,24,25,26,27,28
NPYLR7 agonist,-1,1,14,6,0,-1
NPYLR7 agonist max-min,-4,1,21,1,-2,-5

5 entries picked at random from those above:
nr | Structure | NPYLR7 agonist | NPYLR7 agonist max-min
17 | CCCC(=O)N1CCN(C(=O)c2cn(CC3CCCO3)cc3c(=O)n(-c4ccccc4)nc2-3)CC1 (stereo unspecified) | 3 | 4
7 | CC1Sc2ccccc2N(Cc2ccc(OC(F)(F)F)cc2)C1=O (stereo unspecified) | -6 | -7
5 | COc1cc2ncc(C#N)c(N3CCC(C(=O)NCc4ccc(Cl)cc4)CC3)c2cc1OC | -5 | -7
27 | CN(Cc1nccs1)C(=O)CCc1nnc(Cc2cccc(C(F)(F)F)c2)o1 | 0 | -2
4 | CCCNC(=O)N(Cc1ccco1)Cc1nccn1Cc1ccc(C(F)(F)F)cc1 | 2 | 11

Next section.
nr | Structure | NPYLR7 agonist | NPYLR7 agonist max-min
31 | CC1CN(Cc2ccccc2)c2nc3c(c(=O)n(Cc4cccc5ccccc45)c(=O)n3C)n2C1 (stereo unspecified) | 5 | 6
32 | CN(CCCN1c2ccccc2CCc2ccccc21)C(=O)c1cccc(C(F)(F)F)c1 | -7 | -14
33 | CCOC(=O)c1ccc(NC(=O)CSc2ccc3nc(-c4ccccc4)cn3n2)cc1 | 8 | 2
34 | COc1ccc(C2CCCN2C(=O)c2cc(C3CC3)[nH]n2)cc1 (stereo unspecified) | -19 | -20
35 | Cc1nn(-c2ccccc2)nc1C(=O)NCC1(N(C)C)CCCC(C)C1 (stereo unspecified) | 0&-1 | 1&-4
36 | CC(C)Cn1ccc2cc(N)ccc21 | -3 | -7
37 | O=C(c1ccoc1)N1CCCC(CCc2ccc(F)c(F)c2)C1 (stereo unspecified) | 2 | 0
38 | COc1ccc(CN2CCN(c3ccc(Cl)cn3)CC2)c(OC)c1OC | 3 | 0
39 | O=C(CCN(c1nc(C2CC2)nc2cc(Cl)ccc12)C1CC1)N1CCN(c2ccccc2F)CC1 | 8 | 6
40 | O=S(=O)(c1ccc(Cl)cc1)N1CCCC(N2CCCC2)C1 (stereo unspecified) | 0 | 9
41 | CCOC(=O)C1CCN(c2cc(=O)n(C3CCCCC3)c(=O)[nH]2)CC1 | -2 | 3
42 | Cc1cc(C(=O)N2CCN(c3nc4c(F)cc(F)cc4s3)CC2)no1 | 7 | 3
43 | Cc1sc(-n2c(C)c3c(C)nnc(C)c3c2C)nc1-c1ccccc1 | -17 | -25
44 | Cc1cc(-c2cc(F)cc3c2OC(CNC(=O)C2CCOC(C)(C)C2)C3)ccc1F (stereo unspecified) | 30 | 13
45 | COc1ccc(CCN2C(=O)C3CC=CC(C)C3C2=O)cc1OC (stereo unspecified) | 3 | 11
46 | CCN(C)Cc1cccc(CNS(=O)(=O)c2c(Cl)cccc2Cl)c1 | 4 | 3
47 | CCN(CC1CCN(c2ccccn2)CC1)C(=O)c1cc(Br)ccc1F | 5 | 5
48 | CCn1c(C)c(C(=O)CN(C(=O)c2cc(OC)cc(OC)c2)C2CCCCC2)c(C)c1C(=O)OC | 4 | 5
49 | Cc1cccc(Cn2c(SCCN3CCOCC3)nc3c2c(=O)[nH]c(=O)n3C)c1 | 7 | 4
50 | COC(=O)CCN(C(=O)c1ccc(C#N)cc1)c1cccc(C)n1 | 1 | 67
51 | Cn1cc(CCC(=O)N2CCOC(c3ccc(Cl)c(Cl)c3)C2)cn1 (stereo unspecified) | 2 | 1
52 | COCCNC(=O)C1(C)CCCN(Cc2ccc(-c3ccccn3)cc2)C1 (stereo unspecified) | 1 | 0
53 | CC(C)c1nccc(-c2nccn2Cc2cnn(-c3ccccc3)c2)n1 | 5 | 0
54 | CCC(=O)C1=C(c2ccc(C)cc2)N(C(=O)CC)n2c(Cc3ccc(OC)cc3)nnc2S1 | 2 | -2
55 | S=c1sc2ccccc2n1CN1CCCCC1 | 2 | 4
56 | CS(=O)(=O)c1ccc(CN2CCN(Cc3ccccc3CO)CC2)cc1 | 2 | 2
57 | CC1=NOC(C(=O)NCc2nc(-c3cccc(F)c3)c(-c3ccccn3)[nH]2)C1 (stereo unspecified) | -1 | -2
58 | COc1cc(C(=O)NCC2Cc3cc(F)ccc3O2)cc(OC)c1OC (stereo unspecified) | 5 | 1
59 | Cc1sc2ncn(CC(=O)O)c(=O)c2c1C | 4 | 8
60 | O=C(CCC1CCCC1)Nc1n[nH]c(C(F)(F)F)n1 | -4 | -5
61 | COc1ccc(Cl)cc1NS(=O)(=O)c1ccc(Cl)s1 | 3 | 1
62 | COc1ccccc1OCc1nc(C(=O)NCc2cccc(F)c2)cs1 | 5 | -2
63 | CC(C)(C)Nc1nnc(SCC(=O)NC(=O)NCc2ccccc2)s1 | 12 | 13
64 | COc1ccc(OC)c(NC(=O)CSc2nc3c(-c4ccccc4)c[nH]c3c(=O)n2C)c1 | -3 | -9
65 | COc1ccc(OC)c(NC(=O)Cn2c(-n3nc(C)cc3C)nc(C)c(C)c2=O)c1 | -2 | 3
66 | O=C(O)CN1C(=O)/C(=C\c2cc(Br)ccc2OCc2ccccc2Cl)SC1=S | -5 | 3
67 | Fc1ccc(C2c3cccn3CCCN2Cc2ccc(Cl)cc2)cc1 (stereo unspecified) | 0 | -2
68 | CN(C)CCCCCNCCCNC(=O)/C=N/O | 4 | 2
69 | CN1C(=O)CC(C(=O)Nc2ccc(F)cc2)SC1=Nc1ccc2c(c1)OCO2 (stereo unspecified) | 0 | 2
70 | CCCCc1ncc(-c2nccn2CC2(O)CCCCC2)[nH]1 | -3 | -10
71 | COc1ccc(OCC(=O)NCc2cc(-c3ccc4c(c3)OCO4)on2)cc1 | 3 | 2
72 | O=C1NC2(CCCCC2)C(=O)N1CCS(=O)(=O)Oc1ccc(Br)cc1 | -2 | -6
73 | CC(O)c1nc2ccc(Oc3ccc4nc(C(C)O)[nH]c4c3)cc2[nH]1 (stereo unspecified) | 3 | -2
74 | CN1[C@@H](CC(=O)c2ccccc2)CCC[C@H]1C[C@H](O)c1ccccc1 | -2&-4&4 | -5&-9&-44
75 | N#CCCN(CCC#N)Cn1nc2c(Cl)cc(Cl)cn2c1=S | 0 | 11
76 | COc1ccc(C(=O)NC2CCC(NC(=O)[C@H]3CCCN3C(=O)COCc3ccccc3)CC2)cc1 (stereo partly specified) | 13 | 22
77 | CC1CCc2c(sc(NC(=O)CCl)c2C(N)=O)C1 (stereo unspecified) | -5 | -7
78 | Cc1ccc(S(=O)(=O)NC2=NCN(C)CN2)cc1[N+](=O)[O-] | -9 | -9
79 | CCn1nnc2sc3c(c2c1=O)CCC(C)C3 (stereo unspecified) | -1 | -4
80 | COCCN(CC(=O)N(Cc1ccccc1)Cc1ccco1)C(=O)Nc1cccc(C)c1C | -12 | -10

Continuation:
nr | Structure | NPYLR7 agonist | NPYLR7 agonist max-min
81 | Nc1cccc(-c2cc(Nc3ccc(Oc4ccccc4)cc3)ncn2)c1 | 11 | 10
82 | CC(Oc1ccc(-c2ccncc2)cc1Cl)C(=O)O (stereo unspecified) | 0 | -2
83 | Cc1ccsc1CN(CCN(C)C)Cc1sccc1C | 2 | 0
84 | O=C(c1[nH]cnc1-c1ccccc1)N1CCOC(c2ccc(Cl)cc2)C1 (stereo unspecified) | -4 | -5
85 | COC(=O)c1ccc(C(=O)N2CCN(CC(OCc3ccc(C(F)(F)F)cc3)c3ccc(Cl)cc3)CC2)cc1 (stereo unspecified) | 2 | 0
86 | CC(=O)Nc1ccc(Oc2nnc(-c3ccccc3)c3ccccc23)cc1 | -2 | -6
87 | Cc1ccc(C(O)c2ncc(-c3ccc(Cl)cc3)[nH]2)cc1 (stereo unspecified) | 2 | 3
88 | COc1ccc(C2(CNC(=O)C3CC3)CCCC2)cc1 | -8 | -9
89 | OCCCNc1nc(-c2ccc(Cl)cc2)nnc1-c1ccc(Br)cc1 | 1 | -4
90 | CC(=O)Nc1cc(-c2ccccc2)nn1-c1ccc(C(=O)NC2CCN(Cc3ccccc3)C2)cc1 (stereo unspecified) | -10 | -14
91 | O=C(NCCc1ccc(O)c(O)c1)C(F)(F)F | 6 | 9
92 | CCCCC(CC)C(=O)N1CCN(c2cc(S(=O)(=O)N3CCc4ccccc4C3)ccc2OC)CC1 (stereo unspecified) | 18 | 12
93 | COc1ccc(OC)c(S(=O)(=O)Nc2ccc(NC(=O)NCc3ccc(F)cc3)cc2)c1 | 3 | -1
94 | Cc1ccc(F)c(C(=O)N2C[C@H]3CC=CC[C@H]3C2)c1F | 7 | 5
95 | COC(=O)c1cccc(CN2C(=O)C(C)Sc3cc(Cl)ccc32)c1 (stereo unspecified) | -6 | -6
96 | Cc1cc(=O)n2c(-c3cccc(NC(=O)c4ccc(F)cc4)c3)csc2n1 | 11 | 2
97 | CCCCC(=O)Nc1cc(NC(=O)[C@@H]2CCCO2)ccc1OC | 10 | -2
98 | Cc1cccc(-c2cn(C3CCCc4ccccc43)nn2)n1 (stereo unspecified) | 1 | 19
99 | Cc1ccc2oc(-c3ccc(N)cc3)nc2c1 | -5 | -9
100 | O=c1n(S(=O)(=O)c2ccccc2)c2ccccc2n1S(=O)(=O)c1ccccc1 | 0 | -3
101 | COCCCNC(=O)C1CC(=O)N(C2CCCC2)C1 (stereo unspecified) | 11 | 8
102 | CCC(Oc1ccc2c(c1)CCCC2)C(=O)NCCc1cnc[nH]1 (stereo unspecified) | 5 | -7
103 | O=C(NC1CC2CCC(C1)N2CCc1ccccc1)c1cc(F)cc(F)c1 (stereo unspecified) | -1 | -8
